# Sa growth inh = blocks Staphylococcus aureus growth | S. aureus RN4220 growth, OD600, 20 h, 42 °C; active compounds read low | relative growth, % (test concentration not listed) | 0.53% of 170,000 active;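 active means growth at 42 °C up to 50% and 20 or more points under that at 30 °C, or under 10% at both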;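 further: 300 nL library stock went into each well; scaled to the means of positive and negative controls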
# HCMV NEC inh = inhibitors of HCMV UL50-UL53 nuclear egress complex interaction; inhibition, % (test concentration not listed); HTRF UL50-UL53 interaction, normalized percent inhibition; 0.15% of 190,000 active;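 active means both replicates at 50% or more, plus weaker picks with an unusually low signal ratio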;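 further: stock transfer was 100 nL into about 20 µL; 0% = negative control wells and 100% = wells with untagged competitor protein; inactives centre near -12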
# GIV-Gai inh = blocks GIV peptide binding to rat Galpha-i3. AID 1224905. Galpha-i3/FITC-GIV peptide fluorescence polarization, 90 min; active compounds read low; scaled: aluminum fluoride 0%, vehicle 100%. 0.42% of 210,000 active. percent of control (FP), % (test concentration not listed). P08753;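 active means replicate mean at 85% of control or lower, very high polarization wells dropped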;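 further: lower values mean more displacement of the GIV peptide from Galpha-i3; wells of about 15 µL received 100 nL stock; the first replicate is given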
# Target sequence (P08753 whole entry, looked up): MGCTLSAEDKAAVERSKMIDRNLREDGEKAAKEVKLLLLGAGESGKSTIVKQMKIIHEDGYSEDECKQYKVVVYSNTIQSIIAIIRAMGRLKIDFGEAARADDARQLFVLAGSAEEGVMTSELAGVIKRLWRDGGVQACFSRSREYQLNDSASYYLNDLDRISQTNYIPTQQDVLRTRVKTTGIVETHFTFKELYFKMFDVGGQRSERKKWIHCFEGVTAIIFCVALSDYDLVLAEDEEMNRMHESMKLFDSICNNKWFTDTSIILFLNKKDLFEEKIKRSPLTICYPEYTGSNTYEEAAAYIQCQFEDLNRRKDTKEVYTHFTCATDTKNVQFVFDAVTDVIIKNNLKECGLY
# Sa growth inh second temp = further read-out of Sa growth inh, marked with its call; relative growth, %; measured here: growth at 30 °C;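 optical density after 20 h as mean of two plates; 100% = untreated growth and lower means inhibition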
# The depositor's hits bear a star; nt = not tested or not shown.
molecule | Sa growth inh | Sa growth inh second temp | HCMV NEC inh | GIV-Gai inh
CC1CC(C)CN(C(=O)Cn2c(=O)cnc3ccccc32)C1 (stereo not given) | 92 | 87 | -31 | nt
CC1CN(S(=O)(=O)c2cccc3cnccc23)CCN1 (stereo not given) | nt | nt | -18 | 99
COc1ccc(C(NC(=O)CCCN2C(=O)c3ccccc3C2=O)c2ccccc2)cc1 (stereo not given) | 104 | 85 | -5 | 98
CC(C)CCNC(=O)c1cc(-c2ccccc2)n[nH]1 | 108 | 109 | 3 | 97
COc1ccc(C2=NN(C(=O)CCC(=O)O)C(c3cc4ccc(C)cc4nc3Cl)C2)cc1 (stereo not given) | nt | nt | -6 | 104
Cc1ccc(C)c(Cn2nc3nc(C)nc(N4CCC(CNC(=O)OC(C)(C)C)CC4)c3n2)c1 | 84 | 86 | -9 | 99
Cc1cc(C)n2cc(CSc3ccccn3)nc2n1 | 104 | 95 | -34 | nt
Cc1ccc(CN(C(=O)COc2ccc([N+](=O)[O-])cc2)c2ccccn2)o1 | 108 | 85 | -44 | 105
CCC(Sc1nc2ccccc2o1)C(=O)Nc1ccccc1C#N (stereo not given) | 91 | 85 | -7 | 98
COc1ccc2oc(=O)c(-c3nc(-c4ccc(C)c(C)c4)cs3)cc2c1 | 95 | 91 | nt | 104
Fc1ccc(-n2ncc3c(NCCCc4ccccc4)ncnc32)cc1 | 131 | 100 | nt | 106
CN(Cc1ccccc1)C(=O)c1cc(S(=O)(=O)N2CCCCC2)c[nH]1 | 89 | 90 | -24 | 99
COc1ccc(N2CCN(S(=O)(=O)c3ccccc3-c3nn[nH]n3)CC2)cc1 | 128 | 95 | 3 | 107
COc1ccccc1N1CCN(C(=O)CCc2c(C)nn(-c3ccc(N4CCCC4)nn3)c2C)CC1 | 105 | 89 | nt | 103
O=C(Nc1ccc(Br)cc1)C1Nc2cc(F)ccc2S(=O)(=O)N1 (stereo not given) | nt | nt | -20 | 103

# (list continues)
molecule | Sa growth inh | Sa growth inh second temp | HCMV NEC inh | GIV-Gai inh
O=C(Nc1ccc2oc(=O)ccc2c1)c1cccc(F)c1 | 102 | 92 | -8 | 99
Cc1cccc(C(=O)Nc2nc3c(s2)C(=O)CC(C)(C)C3)c1 | 94 | 67 | nt | 99
CCOC(=O)Cn1c(=O)n(C2CCCCC2)c2nc(-c3c(F)cccc3Cl)nc(C(N)=O)c21 | 82 | 72 | nt | 103
CCN(CC)C(=O)c1sc(NC(=O)c2cc(-c3cccc(OC)c3)nc3ccccc23)c(C(=O)OC(C)C)c1C | nt | nt | -17 | 106
CC(C)c1cc(NC(=O)COC(=O)c2ccccc2SCC(=O)N2CCCC2)on1 | 96 | 91 | -9 | nt
COc1ccc(OC)c(NC(=O)Cn2c(=O)c3c(OC)ccnc3n(C)c2=O)c1 | nt | nt | 2 | 100
COc1ccc(C)cc1NC(=O)c1cc2ccccc2o1 | 99 | 95 | -18 | 111
CN(C)C(=O)c1cn(-c2ccccc2)c(=O)c2ccccc12 | nt | nt | -6 | 111
CCc1ccc(NCN2C(=O)C3=C(CCCC3)C2=O)cc1 | 94 | 77 | 4 | 110
O=C(CN1CCOCC1)n1c2ccccc2c2ccccc21 | 113 | 80 | -17 | 103
COc1ccc2c(c1)OC(c1ccccc1)(C(F)(F)F)NC2=O (stereo not given) | 80 | 97 | 1 | nt
Cc1ccc(OCC(=O)N2CCN(c3nc4ccccc4cc3-c3noc(C)n3)CC2)cc1 | nt | nt | -34 | 105
O=C(O)CCn1cnc2ccccc21 | 94 | 90 | -6 | 108
CCOC(=O)c1cc(-c2csc(-c3ccc(C(F)(F)F)cc3)n2)on1 | 98 | 89 | -37 | 106
O=C(NC(c1ccc2c(c1)OCO2)c1ccc2cccnc2c1O)c1ccccc1 (stereo not given) | 82 | 85 | -12 | nt

# New compounds follow.
molecule | Sa growth inh | Sa growth inh second temp | HCMV NEC inh | GIV-Gai inh
CN(c1ccc2c(c1)OCCO2)S(=O)(=O)c1ccsc1-c1nc(-c2ccc3c(c2)OCO3)no1 | nt | nt | -20 | 101
O=C(O)c1ccc(N2CCCC2)cc1 | 105 | 94 | -6 | 102
O=C(C1CC(c2ccccc2F)=NO1)N1CCc2ccccc2C1 (stereo not given) | 90 | 77 | -20 | 100
Cc1cccc(C)c1NC(=O)c1cc2sccc2n1Cc1ccc(F)cc1 | 94 | 106 | 15 | 103
CN(C)S(=O)(=O)c1ccc2c(c1)N(CC(=O)NC1CC1)C(=O)C1CCCCN21 (stereo not given) | nt | nt | -15 | 100
CC(NC(=O)Cc1ccc(Br)cc1)c1ccccc1 (stereo not given) | 102 | 93 | 0 | nt
COc1cccc2cc(S(=O)(=O)c3ccc(F)c(C)c3)c(=O)oc12 | 107 | 90 | -20 | 98
O=C(Cc1ccccc1)Nc1ccn(Cc2ccccc2)n1 | 102 | 79 | -30 | 102
Cc1cc2c(cc1S(=O)(=O)N1CCCCC1C)OCC(=O)N2 (stereo not given) | 86 | 84 | nt | 98
Cn1cnnc1SCc1ccc(C(=O)NN=C2C3CC4CC(C3)CC2C4)cc1 | 96 | 92 | -25 | nt
COCCn1c(SCC(=O)c2ccc(C)cc2)nc2cc(C(=O)NC3CCCC3)ccc2c1=O | 74 | 86 | nt | 98
O=C(Oc1ccc(Cl)cc1)c1ccc(=O)[nH]c1 | 108 | 92 | 7 | nt
NC(=O)c1cccc(C(N)=O)n1 | 105 | 92 | 0 | 103
CN1CCSC1=NCCSc1ccc(Cl)cc1 | 89 | 92 | -20 | nt
CC(NC(=O)COc1ccccc1O)C1CC2CCC1C2 (stereo not given) | 77 | 87 | -23 | nt

# Further entries:
molecule | Sa growth inh | Sa growth inh second temp | HCMV NEC inh | GIV-Gai inh
COc1ccc(C2=C(C)C(=NCCCN(C)Cc3ccccc3)NS2(=O)=O)cc1 | 108 | 93 | -25 | 104
COc1ccc(-n2cnc3cc(C(=O)NCCC4=CCCCC4)ccc32)cc1 | 122 | 68 | nt | 112
CC(C)c1ccc(S(=O)(=O)c2cnc(SCC(=O)Nc3ccc4c(c3)OCCO4)[nH]c2=O)cc1 | 99 | 84 | -9 | 103
COC(=O)c1ccccc1NC(=O)CSc1nc(C)c(Cl)c(C)c1C#N | 99 | 104 | nt | 104
Cn1c(=O)[nH]c2ncn(C)c2c1=O | nt | nt | -22 | 105
COC(=O)c1cc2occc2n1CC(=O)Nc1cc(C)cc(C)c1 | 111 | 98 | 4 | 112
CC(=O)c1cccc(NC(=O)[C@H](Cc2ccccc2)N2Cc3ccccc3C2=O)c1 | 105 | 77 | -30 | 100
CN1c2ccccc2N(C)C1c1ccc2c(c1)OCO2 | 88 | 81 | 6 | 98
COC(=O)CC(N)c1ccccc1Cl (stereo not given) | 77 | 66 | -6 | nt
COc1ccc(-c2cc(C(F)(F)F)nc(NC(C)c3ccccc3)n2)cc1OC (stereo not given) | 90 | 83 | nt | 108
FC(F)(F)c1cc(-c2ccc(Cl)cc2)nc(N2CCCCC2)n1 | 102 | 86 | -15 | 102
O=C(Cn1nnc(-c2ccccc2)n1)N(c1ccccc1)c1ccc2ccccc2c1 | 128 | 104 | -5 | nt
CC1(C)CC(=O)c2cc3c(N)c(C(=O)Nc4ccccc4)sc3nc2C1 | 116 | 91 | nt | 101
O=C(C1CCN(c2nc3ccccc3n3cccc23)CC1)N1CCC(Cc2ccccc2)CC1 | nt | nt | -11 | 103
Cc1ccccc1C(=O)N1CCC(C(=O)N2CCc3ccccc32)CC1 | 104 | 95 | -6 | nt

# (cont.)
mol,Sa growth inh,Sa growth inh second temp,HCMV NEC inh,GIV-Gai inh
O=C(COc1ccccc1N1CCCCC1)N1CCOCC1,126,90,-1,106
O=c1oc(-c2cccc3ncccc23)nn1Cc1ccccc1F,113,86,-34,96
Cc1cc(NNC(=O)c2cccc(C(F)(F)F)c2)nc2c1c(C)nn2C,102,86,17,104
CC1=NC(C(F)(F)F)(C(F)(F)F)C2=C(CC(C)(C)CC2=O)N1C(C)c1ccccc1 (stereo not given),106,101,nt,109
CC(NCc1ccc(OC(F)F)cc1OC(F)F)c1ccc(-n2ccnc2)cc1 (stereo not given),101,92,8,nt
CC(C)Cn1cc(NC(=O)NCCCc2ccccc2)c2ccccc2c1=O,nt,nt,20,103
CCOC(=O)c1c(-c2ccccc2)oc2cc(Br)c(OCC(=O)OC)cc12,nt,nt,3,106
CC(=O)NC1=NC(=O)/C(=C/c2cn(C(C)=O)nc2-c2ccccc2)S1,nt,nt,-21,134
c1cc(-c2nnco2)ccn1,97,92,5,nt
NC(=O)COc1ccc(Br)cc1CNCc1ccco1,112,89,2,101
Cc1nnsc1C(=O)Nc1ccc(F)cc1,103,92,-24,100
Cc1ccnc(NC(=O)CSC2=NC(=O)C(c3ccccc3)C(=O)N2)c1 (stereo not given),81,94,-11,100
CC(=O)c1ccc(NC(=O)c2nc(-c3ccccc3)n(-c3ccc(Cl)cc3)n2)cc1,99,91,-24,100
O=C(O)c1ccc(Nc2nnc(-c3ccccc3)c(-c3ccccc3)n2)cc1O,66,90,-22,nt
O=C(c1ccccc1)N(Cc1ccc2c(c1)OCO2)Cc1nc2ccccc2c(=O)[nH]1,112,80,4,102
CN(C)CCNC(=O)CN1C(=O)C2CCCCN2c2ccc(C(=O)N3CCCCC3)cc21 (stereo not given),nt,nt,-40,106
CCN(CC)CCNC(=O)Cn1c(C)nc2onc(C)c2c1=O,nt,nt,-2,109
O=C(Nc1ccc(S(=O)(=O)Nc2ccccn2)cc1)c1ccc(F)cc1,107,106,-31,103
NC(=O)CC1(C(F)(F)F)OCCO1,98,93,-4,nt
O=c1[nH]c(-c2ccc(Cl)cc2)nc2ccccc12,100,97,4,101
CSCCC(NS(=O)(=O)c1ccc2c(c1)oc(=O)n2C)C(=O)NCCc1ccc(C)cc1 (stereo not given),92,92,nt,95
FC(F)(F)c1nnc2n1Nc1nc3ccccc3nc1S2,51,15,nt,110
COc1ccc(CN2CCN(C(=O)CC(C)C)CC2)cc1,89,98,-3,105
COc1cccc(OCC(=O)Nc2c(C(=O)Nc3ccccc3OC)oc3ccccc23)c1,89,90,nt,105
CCOc1ccc2nc(NC(=O)c3nc(SCc4ccccc4C)ncc3Cl)sc2c1,103,89,5,101

# (next part)
mol,Sa growth inh,Sa growth inh second temp,HCMV NEC inh,GIV-Gai inh
Cc1c(N(C(=O)Cc2c[nH]c3ccccc23)C2(C(=O)NC3CCCC3)CCCCC2)c(=O)n(-c2ccccc2)n1C,nt,nt,7,103
Cc1ccc(Cl)cc1NC(=O)c1cc(CN2CCCC2)on1,98,86,nt,103
COc1cc(C#N)ccc1OC(=O)c1oc2ccccc2c1CSc1nc(C)cs1,109,93,-23,nt
Cc1ccc(S(=O)(=O)NC2CCC(C)CC2)cc1C (stereo not given),67,58,-10,nt
Cc1csc2ncnc(N3CCN(C(=S)Nc4ccc(F)cc4F)CC3)c12,114,85,4,108
O=C1NC(c2ccc(F)cc2)(C(F)(F)F)C(=O)N1c1ccccn1 (stereo not given),nt,nt,-20,94
CCOC(=O)c1c(NC(=O)c2ccccc2F)sc(C(=O)Nc2cc(C(F)(F)F)ccc2Cl)c1C,nt,nt,-10,94
COc1ccc(-c2nc(C)c(CCNS(=O)(=O)c3ccc(F)cc3)s2)cc1OC,109,89,nt,100
CC(=O)Nc1sccc1C(=O)O,nt,nt,-10,100
COc1ccc(/C=C/c2nc(-c3ccc4c(c3)[nH]c(=O)n4C(C)C)no2)cc1,nt,nt,-23,103
Cc1ccc(-c2nnn(CC(=O)N(c3ccccc3)C(C(=O)NCc3ccccc3)c3ccncc3)n2)o1 (stereo not given),111,81,-29,103
COc1ccc(NC(=O)CSc2nc3c([nH]c4ccccc43)c(=O)n2-c2ccccc2)c(OC)c1,127,75,nt,107
CS(=O)(=O)NC1CC(=O)N(c2cccc(F)c2)C1 (stereo not given),83,82,-33,102
CCOC(=O)c1ccc(NCn2c(=O)oc3ccccc32)cc1,111,76,-10,164
CCc1ccc(NC(=O)C(C)N2C(=O)c3ccccc3C2=O)cc1 (stereo not given),79,86,nt,105
CCCC(=O)N1c2ccccc2C(N(C(=O)c2ccccc2)c2ccc(F)cc2)CC1C (stereo not given),nt,nt,-12,105
Cc1ccc(-c2ccc(C=C3C(=O)N(C)C(=S)N(C)C3=O)o2)c(Br)c1,nt,nt,-6,104
CC(=O)NCc1nc2cccnc2n1Cc1ccccc1,104,86,nt,107
O=C(c1cc(Cl)c2c(c1)OCO2)N1CCCSc2ccccc21,132,73,-32,nt
Cc1cccc(C2=NN3C(=N)/C(=C\c4ccc5c(c4)OCO5)C(=O)N=C3S2)c1,50,16,-32,112
CCc1ccc(NC(=O)CSc2nc(C)c(C(=O)Nc3ccc(Cl)cc3)c(-c3ccc(OC)cc3)c2C#N)cc1,88,80,-34,104
Cc1ccc(N2C(=O)c3cc4ccsc4n3CC2(C)C(=O)NC2CCCC2)cc1C (stereo not given),nt,nt,-38,108
COC(=O)c1cncc(Br)c1,103,100,-2,106
O=C(NCC1CC1)Nc1ccccc1,85,79,-36,104

# Gathered by group: those above with a COOH group.
mol,Sa growth inh,Sa growth inh second temp,HCMV NEC inh,GIV-Gai inh
COc1ccc(C2=NN(C(=O)CCC(=O)O)C(c3cc4ccc(C)cc4nc3Cl)C2)cc1 (stereo not given),nt,nt,-6,104
O=C(O)CCn1cnc2ccccc21,94,90,-6,108
O=C(O)c1ccc(N2CCCC2)cc1,105,94,-6,102
O=C(O)c1ccc(Nc2nnc(-c3ccccc3)c(-c3ccccc3)n2)cc1O,66,90,-22,nt
CC(=O)Nc1sccc1C(=O)O,nt,nt,-10,100
